From PubChem BioAssay
gsp agonist: qHTS for Agonist of gsp, the Etiologic Mutation Responsible for Fibrous Dysplasia/McCune-Albright Syndrome: qHTS. gsp mutant cells, cAMP HTRF, 30 min; control for the full effect not named in the record. Potency, µM (doses to about 76.9 µM), without a hit: at the highest dose activation (cAMP increase), hits mostly activators. 0.13% of 340,000 active. AID 624287, 2012; active = well fitted activation curve with a large enough effect; inconclusive = small, poorly fitted or top-dose-only effect, or another doubt; inactive = no such curve, though single readings can be large or run the other way; cell line not stated here;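 further: phosphodiesterase inhibitor Ro 20-1724 added with compounds to block cAMP breakdown; potency means the concentration at half of the fitted maximal effect; nearly all actives have a fitted effect of over 60% in size; about a fifth of the inactives were tested at one dose only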
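Cells stably selected in G418 were plated at 2000/well, grown 16-24 hr, then given compounds in DMSO with the PDE inhibitor […] (300 uM solution added) for 30 min at 37C; cAMP was read by HTRF.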
ClpP mod: qHTS Assay for Activators of ClpP | Potency, µM (series often up to 57.5 µM), without a hit: at the highest dose activity change, negative = active | ATP-dependent Clp protease proteolytic subunit (Bacillus subtilis (strain 168)), P80244 | AID 651965, 2013 | 1.9% of 340,000 active | purified B. subtilis ClpP, FRET peptide cleavage, 20 min; active = well fitted falling curve with a large enough effect; inconclusive = small, poorly fitted or top-dose-only effect; inactive = no such curve, though single readings can be large or run the other way; further: potency means the concentration at half of the fitted maximal effect; the source files actives as falling curves though it sought activators and does not explain the sign; nearly all actives have a fitted effect of over 65% in size; many hits overshoot -100%
Target sequence (P80244 whole entry, looked up): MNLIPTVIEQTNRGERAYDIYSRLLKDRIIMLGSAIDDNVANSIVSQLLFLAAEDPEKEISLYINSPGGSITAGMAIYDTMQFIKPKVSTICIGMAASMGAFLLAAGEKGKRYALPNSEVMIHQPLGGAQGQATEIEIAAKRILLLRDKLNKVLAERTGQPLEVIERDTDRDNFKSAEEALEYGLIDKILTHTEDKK
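Buffer: 100 mM Tris/HCl pH8, 100 mM KCl, 0.05% low protease BSA, 2.5% glycerol, 0.01% Tween-20. ClpP 10 microg/mL final; 20 min RT; delta FRET normalized to ADEP and DMSO controls.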
gsp antagonist: qHTS for Antagonists of gsp, the Etiologic Mutation Responsible for Fibrous Dysplasia/McCune-Albright Syndrome: qHTS | gsp-mutant cells, cAMP HTRF, 30 min; control for the full effect not named in the record | Potency, µM (doses to about 76.9 µM), without a hit: at the top dose activity change, negative = inhibition, most hits filed as inhibitors | 0.4% of 340,000 active | AID 624288, 2012; active = falling curve of any shape with a large fitted effect; inconclusive = falling curve, mostly with a smaller effect; inactive = flat or rising curve; cell line not stated here;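 further: intracellular cAMP measured with PDE inhibitor Ro 20-1724 present during compound exposure; potency means the concentration at half of the fitted maximal effect; on the % scale 0 is the no-effect control and ±100 the full control effect; nearly all actives have a fitted effect of over 65% in size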
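Measurement of cellular cAMP by homogeneous time-resolved fluorescence following a 30 min compound exposure at 37C. The PDE inhibitor […] was present throughout; the assay buffer was DPBS with 0.05% BSA and 0.005% Tween 20.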
TRPML1 ag: qHTS for Agonists of the Human Mucolipin Transient Receptor Potential 1 (TRPML1). activation, % (test concentration not listed). Mucolipin-1 (Homo sapiens), Q9GZU1. 0.12% of 410,000 active. TRPML1-expressing cells, Ca2+ dye fluorescence, FDSS; host cell line not named in the record; reference of the full effect not given here; in the data active = activation above about 50%; inconclusive = about 30% to 50%; inactive = below about 30%; further: 0% is about no effect; the text of the record puts the active cut at 80%
Target sequence (Q9GZU1 whole entry, looked up): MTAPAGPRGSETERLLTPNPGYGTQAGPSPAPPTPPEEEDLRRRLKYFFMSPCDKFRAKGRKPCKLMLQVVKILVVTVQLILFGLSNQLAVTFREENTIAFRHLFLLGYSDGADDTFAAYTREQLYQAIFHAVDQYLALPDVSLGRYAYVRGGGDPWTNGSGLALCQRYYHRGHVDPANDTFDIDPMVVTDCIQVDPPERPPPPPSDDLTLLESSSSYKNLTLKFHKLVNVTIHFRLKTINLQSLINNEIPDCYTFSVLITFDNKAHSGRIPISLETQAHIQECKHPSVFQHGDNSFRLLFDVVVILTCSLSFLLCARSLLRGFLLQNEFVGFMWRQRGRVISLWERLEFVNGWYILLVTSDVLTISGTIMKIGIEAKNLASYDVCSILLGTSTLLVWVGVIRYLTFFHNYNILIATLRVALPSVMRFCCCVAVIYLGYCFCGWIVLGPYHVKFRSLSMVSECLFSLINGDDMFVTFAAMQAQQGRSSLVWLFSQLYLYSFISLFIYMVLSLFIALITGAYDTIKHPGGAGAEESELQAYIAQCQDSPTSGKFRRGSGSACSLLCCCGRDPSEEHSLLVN
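Calcium fluorescence on an FDSS kinetic reader gave the read-out. Tet-induced TRPML1-DL cells were plated overnight, dye-loaded (Ca8 with quencher, 45-90 min, room temperature, dark), then read 110 s after compound addition, and again 110 s after 4uM final 54-4 (EC80).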
Menin-MLL FL inh: qHTS Assay for Inhibitors Targeting the Menin-MLL Interaction in MLL Related Leukemias: Competition With Fluorescein Labeled MLL-derived Peptide. Fluorescence polarization, fluorescein-MLL peptide displacement from menin. FP activity change, % at 61.4 µM. AID 1766, 2009. 290,000 tested, under 10 active; inconclusive = falling polarisation curve, or a change in total fluorescence; inactive = total fluorescence flat and polarisation flat or rising; no compound was filed as active; the % refers to the polarisation; negative = inhibition;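 further: % of control where 0% means no effect; inhibitors lower the polarisation; unlabelled MLL peptide was the positive control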
TRPML1 inh: qHTS for Inhibitors of the Human Mucolipin Transient Receptor Potential 1 (TRPML1); Mucolipin-1 (Homo sapiens), Q9GZU1; 0.02% of 390,000 active; activity change, negative = inhibition, % (test concentration not listed); AID 624415, 2012; TRPML1-inducible cells, Ca2+ dye fluorescence, FDSS; hits give low values; inhibition of EC80 agonist-evoked calcium signal; in the data active means activity change below about -50%; inconclusive means about -30% to -50%; inactive means above about -30%;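 further: stimulus is agonist 54-4 at its EC80 concentration; on the % scale 0 is the no-effect control and ±100 the full control effect; compound concentration not given in the record; the text of the record puts the active cut at -80%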
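TRPML1-DL cells, Tet-induced overnight (~16 h, 37 °C) at 1,500 cells/well, were loaded with Ca8 no-wash dye plus quencher for 45-90 min at room temperature. Compounds were pinned during FDSS kinetic reading; agonist 54-4 at EC80 (4 uM final) then added.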
* hit, by the source's call; u = inconclusive; x = not tested or not shown; & = joins results of further samples; [ ] = dose if it differs, or a comment. Compounds as they come. Share with any hit: about 2.1%.

Structure,Menin-MLL FL inh,ClpP mod,gsp antagonist,TRPML1 ag,TRPML1 inh,gsp agonist
Clc1ccccc1CSc1nnc([C@@H]2CCCN2)o1,-0.6,-0.3%,2%,0.9,19,17%[15.4 µM]
CC1CCN(C(=O)CCC(=O)Nc2ccc([N+](=O)[O-])cc2)CC1,x,-0.8%,x,-0.1,2,u
C=C1c2cc(OC)ccc2NC(=O)N1CC,2.0,3.2µM*,15%,2.5,-6,21%
Cc1nc2ccc(NC(=S)NCc3ccccc3)cc2nc1C,-2.7,x,1%,0.3,-26,u
CCc1sc(C(=O)N2CCCN(C)CC2)cc1Br,x,-0.9%,4%,-0.6,2,22%
CCCCn1c(N)c(N(CCOC)C(=O)CCNC(=O)c2ccc(Br)cc2)c(=O)[nH]c1=O,x,-4.1%,11%,-0.2,4,-14%
Cn1cccc1/C=N/NC(=O)C12CC3CC(CC(C3)C1)C2,0.6,2.2%,5%,0.3,3,6%
CCOC(=O)c1c(-c2ccccc2)oc2ccc(OCc3ccccc3Br)cc12,x,u,x,-0.4,0,x
CCCN(CCC)C(=O)Cn1c(=O)n(-c2cccc(OC)c2)c(=O)c2c3c(sc21)CCCC3,x,0.0%,x,2.3,3,x
O=C(Nc1ccc([N+](=O)[O-])cn1)c1ccc(Br)o1,6.4,0.3%,2%,-0.4,-14,3%
COc1cc(-c2noc(C)c2C(=O)NCCc2c[nH]c3ccccc23)cc(OC)c1OC,7.2,-4.8%&-3.5%,-16%,0.4&-0.6,2,19%
O=C(CNC(=O)c1ccccc1)OCc1cc(=O)n2cc(Br)ccc2n1,3.2,-11%,8%,0.0,-2,5.6µM*
O=C(CN1C(=O)c2cccc3cccc(c23)C1=O)N1CCOCC1,-1.1,-6.9%,1%,-0.3,1,-4%[15.4 µM]
CCOC(=O)N1CCC(NC(=O)c2ccc3c(c2)N=C(C)c2c(C)ccc(C)c2S3)CC1,-13,-17%,6%,2.8,18,-6%
COC(=O)c1ccc(S(=O)(=O)N2CCC(C(N)=O)CC2)n1C,-0.2,x,-2%,1.1,6,29%
Cc1ccc(-c2nc(N)nc(N)n2)c(C)c1,x,-0.3%,-2%,-0.7,7,x
CN(CC(=O)Nc1ccc(Cl)cc1)C(=O)C1=COCCO1,x,0.2%,12%,0.0,2,-21%
O=C(Nc1ccccc1-c1ccccc1)c1cccc([N+](=O)[O-])c1,-1.0,1.2%,u,1.3,3,-7%
Cc1ccc(C2NC(=O)c3ccccc3N2)s1 (centres undefined),0.6,28µM*,13%,2.2,14,0%
O=C(c1ccccc1)c1cccn1CC(=O)N1CCN(c2ccc(F)cc2)CC1,1.8,-1.7%,-4%,-0.2,11,-9%
CCOc1ccc(NC(=O)NNC(=O)C2CCC(C(C)(C)C)CC2)cc1 (centres undefined),0.1,1.4%,-2%,4.0,4,-78%[inhibitor]
Cc1nn(-c2ccc(N3CCCC3)nn2)c(C)c1CCC(=O)Nc1ccccc1,x,-0.5%,x,-0.2,56,x
CN(Cc1ccccc1)C(=O)c1ccc(NC(=O)Cc2ccc(NC(=O)C3CCCN(C(=O)CCc4ccccc4)C3)cc2)cc1 (centres undefined),x,-0.6%,3%,0.9,12,x
O=C(CN1C(=O)c2cccc([N+](=O)[O-])c2C1=O)N1CCN(c2ccc(F)cc2)CC1,-3.8,x,-13%,-0.2,-4,-4%[15.4 µM]
CCN(C(=O)COC(=O)c1cccnc1Nc1cccc(C(F)(F)F)c1)C1CCS(=O)(=O)C1 (centres undefined),6.8,-2.5%,-8%,0.7,0,u
NC(=O)c1cc(N2C(=O)C=CC2=O)ccc1Cl,2.1,-1.7%,-11%,0.5,-2,9%
O=C(c1cccc(F)c1)N(Cc1nc2ccccc2c(=O)[nH]1)C1CCCC1,1.9,0.5%,-12%,1.0,-7,-24%
CCn1c2ccccc2c2nc3cc(S(=O)(=O)N4CCOCC4)ccc3nc21,-2.4,-4.2%,10%,1.3,-3,u
COc1cc(SC)ccc1C(=O)NCCc1c[nH]c2ccccc12,2.9,1.0%,u,2.3,16,2%[15.4 µM]
CCC(=O)N1CCN(c2ccc(NC(=O)COc3cccc(C)c3C)cc2)CC1,-7.2,x,-22%,1.5,-16,-57%[inhibitor]

(cont.)
Structure,Menin-MLL FL inh,ClpP mod,gsp antagonist,TRPML1 ag,TRPML1 inh,gsp agonist
Cc1ccc(F)cc1NC(=O)CCOc1ccccc1,0.7,x,3%,0.9,2,5%
CCCOc1ccc(/C(O)=C2/C(=O)C(=O)N(CCCOC)C2c2cccnc2)cc1 (centres undefined),-1.3,-1.5%,12%,-0.2,3,u
O=C(COC(=O)/C=C/c1cccc(C(F)(F)F)c1)NCc1cccs1,x,-1.3%,4%,0.5,8,20%
CN1C(=O)Cc2cc(S(=O)(=O)N3CCN(c4cccc(C(F)(F)F)c4)CC3)ccc21,x,3.1%&0.4%,-2%,0.5&-0.3,8&-12,-9%
COc1ccc(CN(C)c2ncnc3sccc23)c(OC)c1OC,-1.7,-0.7%,1%,0.1,8,22%[15.4 µM]
O=S(=O)(Nc1cccc(Oc2ccc(Cl)cc2)n1)c1ccc(F)cc1,3.5,0.7%,12%,1.9,14,6%
Cc1cccc(NC(=O)CSc2nnc(CNC(=O)c3ccco3)n2C)c1,3.8,-1.3%,-3%,1.0&-0.9,0,4%[15.4 µM]
CCN1C[C@@H]2[C@@H]3C(=O)N(Cc4ccccc4)C(=O)[C@@H]3[C@](Cc3ccccc3)(C(=O)OC)N2C1=NCc1ccccc1,x,0.4%,0%,2.2,49,x
O=C1NCCN1Cc1ccccc1,6.3,-2.6%,6%,0.6,11,u
FC(F)(F)c1ccccc1/C=N/n1c(C2CCCCC2)n[nH]c1=S,-5.3,2.5%,-7%,-0.3,22,-18%
CC(=O)N1c2c(cc(Br)cc2S(=O)(=O)N2CCN(c3ccccc3)CC2)CC1C (centres undefined),x,-3.3%,x,1.1,2,x
O=C(CN=C1NS(=O)(=O)c2ccccc21)OCC(=O)c1ccccc1,2.5,x,2%,0.0,-8,-15%[15.4 µM]
COc1ccc(CCNC(=O)c2ccc3c(c2)c(C)c(C)n3Cc2ccc(F)cc2)c(OC)c1OC,x,25µM*,x,1.2,-8,x
O=C(O)c1ccc(NC2=C(Cl)C(=O)c3ccccc3C2=O)cc1,3.7,1.9%,28µM*,2.1,58,u
COC(=O)CN(c1nc(C)c(Cl)c(OC)n1)S(=O)(=O)c1ccc(C)cc1,-1.7,1.5%,-19%,0.7,46,-12%
CN1CCN(C(CNS(=O)(=O)c2ccc(F)cc2)c2cccnc2)CC1 (centres undefined),0.3,0.5%,16%,-1.0,8,-1%
Cc1cc[n+](-c2nc([O-])sc2/C=N/Nc2ccc([N+](=O)[O-])cc2)cc1,-4.9,-0.2%,7%,0.4,23,8%
O=C(O)c1ccc(CSc2nnc(-c3ccco3)n2-c2ccccc2)cc1,-6.7,x,-12%,-0.4,-13,-36%[inhibitor]
O=C(CNC(=O)c1ccccc1)OCCCOC(=O)CNC(=O)c1ccccc1,x,1.6%,14%,1.4,11,25%
CC(C)(C)c1cc(/C=C2\NC(=O)NC2=O)cc(C(C)(C)C)c1O,11,-1.1%,-18%,0.3,20,-58%[inhibitor]
CC(=O)N(c1nc(CCl)cs1)c1ccc(C)cc1C,-3.0,-0.8%,12%,0.7,-3,-80%[inhibitor]
Clc1ccc2nc(-c3cccc(SC4CCCCC4)c3)c(NCc3ccccc3)n2c1,x,u,-17%,0.2,-1,x
O=C(Nc1ccc(N2CCOCC2)c(S(=O)(=O)Nc2ccccc2Cl)c1)c1ccc(F)cc1,x,-26%,-9%,1.5,60,-2%[15.4 µM]
COc1ccc(/C(C)=N/OCC(=O)Nc2nc3ccccc3s2)cc1,4.7,-2.0%,-6%,-1.8,-1,-9%
CCOc1ccc2c(c1)[C@@H]1C=CC[C@@H]1[C@H](c1ccccc1Cl)N2,x,-6.6%,x,-1.0,-9,x
CS(=O)(=O)N(CC(O)Cn1c2ccccc2c2ccccc21)c1cccc2ccccc12 (centres undefined),3.0,-4.6%,-8%,-0.4,-6,15%
Cc1nn(-c2ccc(Cl)cc2)c2[nH]c(=O)c(CNCc3ccc4c(c3)OCO4)cc12,0.0,-10%,-6%,1.2,6,-17%
Oc1cccc(CCC2CCCCN2Cc2cn[nH]c2-c2ccc3c(c2)OCO3)c1 (centres undefined),-0.1,1.9%,4%,-0.2,6,-16%
CCOc1ccc(CCNC(=O)COC(=O)c2cccc(OC)c2O)cc1OCC,1.1,-1.0%,-5%,1.5,-11,0%
Cc1ccc(C(C(=O)NC(C)(C)C)N(Cc2ccccc2)C(=O)c2snc(C(N)=O)c2N)o1 (centres undefined),0.7,x,-9%,2.8,-20,4%[15.4 µM]
C/C(=N/NS(=O)(=O)c1ccccc1)c1c[nH]c2ccccc12,2.6,-3.8%,2%,0.1,-1,28%
CC(=O)Nc1ccc(NS(=O)(=O)c2cc([N+](=O)[O-])ccc2C)cc1,-2.2,x,x,-0.4,-13,7%[15.4 µM]

Profiles, quoted from the list. Order of screens: Menin-MLL FL inh	ClpP mod	gsp antagonist	TRPML1 ag	TRPML1 inh	gsp agonist
Cc1nc2ccc(NC(=S)NCc3ccccc3)cc2nc1C is entered as -2.7	x	1%	0.3	-26	u
NC(=O)c1cc(N2C(=O)C=CC2=O)ccc1Cl is entered as 2.1	-1.7%	-11%	0.5	-2	9%
O=C(CN=C1NS(=O)(=O)c2ccccc21)OCC(=O)c1ccccc1 is entered as 2.5	x	2%	0.0	-8	-15%[15.4 µM]
CCOC(=O)c1c(-c2ccccc2)oc2ccc(OCc3ccccc3Br)cc12 is entered as x	u	x	-0.4	0	x
CCCOc1ccc(/C(O)=C2/C(=O)C(=O)N(CCCOC)C2c2cccnc2)cc1 (centres undefined) is entered as -1.3	-1.5%	12%	-0.2	3	u
